MbtI inh: MbtI salicylate synthase inhibitors, primary screen, biochemical, fluorescence intensity; inhibition, %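 (about 17 µg/mL by stock and volumes)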; hit rate 0.89% among 100,000; purified MbtI enzyme, fluorescence intensity read-out;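 active = above 50% in both replicates, above 80% if mildly self-fluorescent; inactive = the rest, strongly fluorescent compounds included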;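 also: 0% = mean of negative and 100% = mean of positive controls; one replicate is shown; some compounds called inactive have numbers as strong as hits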
Mtb MenB inh: M. tuberculosis MenB inhibitors, primary screen, biochemical, absorbance; 1,4-dihydroxy-2-naphthoyl-CoA synthase (Mycobacterium tuberculosis (strain ATCC 25618 / …; MenB enzyme assay, absorbance read-out; some hits fall short of the stated cut; inhibition, %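 (about 12 µg/mL by stock and volumes)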; hit rate 0.43% among 100,000;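 active = mean of two replicates above 30%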;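 also: 0% = no compound and 100% = wells with inactive enzyme; the first replicate is given; strong numbers were not always called active; inactives centre near -10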
Target sequence (P9WNP5 whole entry, looked up): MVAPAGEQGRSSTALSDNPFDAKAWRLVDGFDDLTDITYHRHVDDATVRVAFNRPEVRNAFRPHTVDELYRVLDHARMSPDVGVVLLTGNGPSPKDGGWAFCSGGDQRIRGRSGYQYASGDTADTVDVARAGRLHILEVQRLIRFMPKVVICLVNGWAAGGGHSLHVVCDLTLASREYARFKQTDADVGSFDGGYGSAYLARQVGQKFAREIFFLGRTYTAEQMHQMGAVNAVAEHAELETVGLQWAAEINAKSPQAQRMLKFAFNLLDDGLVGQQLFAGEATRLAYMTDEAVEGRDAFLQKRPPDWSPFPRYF
Polio RdRp inh: poliovirus RdRp elongation inhibitors, primary screen, biochemical, fluorescence polarization, total intensity | poliovirus polymerase elongation; hits give low values | Genome polyprotein (Poliovirus type 1 (strain Mahoney)), P03300 | hit rate 0.66% among 150,000 | % elongation, % (compound at 16.7 µg/mL); in the data active = % elongation below about 90%; also: some results filed as inactive read as strong as hits
Target sequence (P03300 1749-2209 limits assumed): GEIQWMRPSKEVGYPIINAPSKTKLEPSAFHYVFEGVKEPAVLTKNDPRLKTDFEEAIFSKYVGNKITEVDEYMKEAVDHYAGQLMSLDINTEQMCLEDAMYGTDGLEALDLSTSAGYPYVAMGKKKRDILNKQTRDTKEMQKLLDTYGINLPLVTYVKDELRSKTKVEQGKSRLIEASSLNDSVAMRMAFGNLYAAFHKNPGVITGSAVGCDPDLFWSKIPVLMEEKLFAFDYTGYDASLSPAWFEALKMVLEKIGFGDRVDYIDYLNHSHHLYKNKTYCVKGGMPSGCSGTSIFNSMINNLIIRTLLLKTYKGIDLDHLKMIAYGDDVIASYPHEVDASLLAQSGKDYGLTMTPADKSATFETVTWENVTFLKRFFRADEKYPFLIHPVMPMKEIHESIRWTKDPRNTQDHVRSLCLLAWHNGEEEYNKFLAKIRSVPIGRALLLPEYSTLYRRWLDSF
Polio RdRp inh intensity: second read-out of Polio RdRp inh, no call of its own (marks repeat the call); % elongation; measured here: total intensity read-out; formula for this scale not given here;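 total fluorescence in place of polarization; lower means less elongation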
The depositor's hits bear a star; i = inactive; / = no result given.

molecule | MbtI inh | Mtb MenB inh | Polio RdRp inh | Polio RdRp inh intensity
CCCOC(=O)CSc1ncnc2sc(C)c(C)c12 | 1 | 5 | 103 | 103
O=S(=O)(Nc1ccccc1)C(Nc1ccccc1)c1ccccc1F (stereo unspecified) | -10 | / | 101 | 102
O=C(Nc1ccc(Nc2ccccc2)cc1)C1CC1 | -32 | -4 | 99 | 103
CCOc1ccc(C(=O)Nc2ccc(-c3nc4ncccc4o3)cc2)cc1 | 74 | 5 | 99 | 101
CCN(CC)S(=O)(=O)c1cc(C(=O)OCC(=O)c2ccc3c(c2)NC(=O)CO3)ccc1Cl | 5 | -11 | 99 | 90
CCOc1ccc2[nH]c(=O)c(C(c3nnnn3CCOC)N3CCCCC3)cc2c1 (stereo unspecified) | / | -8 | 98 | 107
CN(C)Cc1nnnn1CCn1nnnc1CN(C)C | / | 3 | 100 | 109
Cc1ccc(S(=O)(=O)N2CCCCC2C(=O)NCCOc2ccccc2)cc1 (stereo unspecified) | 2 | -13 | 106 | 110
COc1cc2c(cc1O)C1Cc3ccc(OC)c(O)c3CN1CC2 (stereo unspecified) | -9 | -11 | 99 | 98
CCCC(=O)Nc1c(C)nn(C(=O)CCC)c1C | -21 | 7 | 101 | 103
OCCOCCN1CCN(Cc2ccc(Cl)cc2)CC1 | -4 | 2 | 98 | 99
COC(=O)NC(Nc1ccccc1)C(=O)c1ccccc1 (stereo unspecified) | 3 | -21 | 100 | 102
C=CCNCc1cc2cc(OCC)ccc2[nH]c1=O | 88 | -59 | 100 | 101
CC1(C)C2CCC3(C)OC(=O)N(N1c1ccccc1)C23C (stereo unspecified) | / | -15 | 106 | 105
CCOC(=O)Nc1cccc2ccccc12 | 52 | -16 | 102 | 84
Cn1c(SCC(=O)N(c2ccccc2)C2CCCCC2)nc2cc(S(N)(=O)=O)ccc21 | 17 | 6 | 79* | 86*
O=C(O)CSc1nnc2c(n1)OC1(CCCCC1)Nc1ccccc1-2 | 3 | 6 | 100 | 102
O=C(NCc1cc2ccccc2s1)C1CN(C(c2ccccc2)c2ccccc2)C1 | -9 | -16 | 102 | 105
CCC1(CC)C(=O)c2cc3ccccc3cc2C1=O | -7 | -2 | 105 | 101
Cc1ccc2c(c1)C(N1CCCC1=O)CC(c1ccco1)N2 (stereo unspecified) | 98 | -5 | 102 | 107
Cc1nn(CCCC(=O)NC(C)C)c(=O)c2cc3sccc3n12 | -7 | 12 | 103 | 106
CC1CCCC(C)N1C(=O)c1scc2c1OCCO2 (stereo unspecified) | / | -4 | 105 | 105
CCOC(=O)c1cnn(CC2CCCCC2)c1N | / | -10 | 104 | 112
O=S(=O)(Nc1ccc2c(c1)CCC2)c1cccs1 | 5 | -13 | 104 | 104
CCN(CC)C(=O)c1ccc(NC(=O)CSC(C)(C)C)cc1 | -11 | -5 | 104 | 108
Nc1ccc(-c2nn[nH]n2)cc1F | / | -15 | 101 | 105
CCC1CC(C(F)(F)F)n2ncc(C(=O)O)c2N1 (stereo unspecified) | -6 | -10 | 100 | 98
Cn1c(N)c(C(=O)COc2ccccc2Cl)c(=O)n(C)c1=O | -2 | -11 | 102 | 100
CCN(CC)C(=O)CN1Cc2ccccc2C1=O | -22 | 4 | 100 | 102
Cc1ccc(-c2noc(CNC(C)C)n2)cc1 | -7 | -13 | 101 | 102
NNC(=O)C1CCCN1S(=O)(=O)c1ccc(Cl)cc1 (stereo unspecified) | / | -19 | 110 | 100
COCCCN1CCc2nc(SCC(=O)Nc3cccc(C(F)(F)F)c3)[nH]c(=O)c2C1 | -25 | -4 | 102 | 103
O=C(O)CCc1nnc(-c2ccccc2)o1 | 5 | 4 | 95 | 103
CN(C)C(CNC(=O)Cc1c[nH]c2ccccc12)c1ccco1 (stereo unspecified) | 5 | -22 | 110 | 121
CNC(=S)C12CC3CC(CC(C3)C1)C2 | -3 | -14 | 105 | 108
CC(C)(C)c1nc(SCc2nc(-c3cccc(-n4cccc4)c3)no2)n[nH]1 | -6 | -17 | 102 | 104
O=C(NCc1ccccc1)c1cc2c(s1)-c1ccccc1SC2 | 60 | -31 | 101 | 108
C=CCNC(=O)c1cc2c(C)nn(-c3ccc(F)cc3)c2s1 | 138 | 13 | 106 | 100
OC1CCCc2c(OCc3coc(-c4cccs4)n3)cccc21 (stereo unspecified) | -44 | -61 | 103 | 100
Cc1cnc(NC(=O)c2cccc(OC(F)F)c2)s1 | -5 | -25 | 103 | 92

Whole records, looked up by structure:
Entry for O=C(NCc1ccccc1)c1cc2c(s1)-c1ccccc1SC2 → MbtI inh: 60; Mtb MenB inh: -31; Polio RdRp inh: 101; Polio RdRp inh intensity: 108
Entry for O=C(O)CCc1nnc(-c2ccccc2)o1 → MbtI inh: 5; Mtb MenB inh: 4; Polio RdRp inh: 95; Polio RdRp inh intensity: 103

(more compounds)
molecule | MbtI inh | Mtb MenB inh | Polio RdRp inh | Polio RdRp inh intensity
O=C1CCN(CC(=O)Nc2ccc(-c3ccccc3)cc2)CC1 | 4 | 3 | 104 | 109
C=CC#CC(C)(C)c1ccc(O)c(C)c1 | -9 | -34 | 103 | 102
O=S(=O)(c1ccccc1)c1ccc(I)cc1 | -17 | 5 | 99 | 104
O=C(Nc1ccc(N2CCOCC2)cc1)c1ccc2c(=O)n3c(nc2c1)CCC3 | 17 | -24 | 105 | 88
C#CCSc1nc(C)cc(C(=O)OCC)c1C#N | -2 | -20 | 105 | 104
Cc1ccc(-c2nnc(NC(=O)c3cc4c([nH]c5ccccc54)c(C)n3)s2)cc1 | i | -13 | 104 | 102
Nc1ccccc1SCC(=O)Nc1ccccc1 | 4 | 0 | 102 | 102
CCOC(=O)c1cn(C2CC2)c2c(F)c(F)c(F)cc2c1=O | / | -12 | 100 | 108
CCc1nc2ccccc2c(C(=O)Nc2cccc(Cl)c2)c1C | / | -10 | 104 | 101
O=C(Cn1cnc2c(oc3ccccc32)c1=O)Nc1cccc(C(F)(F)F)c1 | 4 | 8 | 101 | 99
CC1(C(=O)O)CCC(c2nc3ccccc3[nH]2)C1(C)C (stereo unspecified) | -7 | / | 106 | 101
Cc1ccn2nc(C(=O)OCC(=O)N(Cc3ccccc3)Cc3ccccc3)nc2n1 | -10 | -1 | 103 | 110
CCN(Cc1ccccc1)c1ncnc2onc(-c3ccc(F)cc3)c12 | 17 | 7 | 101 | 97
COc1ccc(NC(=O)c2c[nH]c(=O)n(-c3ccccc3)c2=O)cc1 | -3 | -5 | 102 | 103
C/C(=N\NC(=S)NC1CCCCC1)c1ccc(S(=O)(=O)NCc2ccco2)cc1 | 16 | -34 | 109 | 95
Cc1ccc(CNC(=O)c2c[nH]c3ccc(S(=O)(=O)Nc4ccc(C)cc4C)cc3c2=O)cc1 | -98 | 0 | 103 | 105

Continued.
compound	MbtI inh	Mtb MenB inh	Polio RdRp inh	Polio RdRp inh intensity
Cc1c2occ(C(C)(C)C)c2cc2c3c(c(=O)oc12)CCCC3	2	-5	101	95
Fc1ccc(C2Nc3ccc(OC(F)(F)F)cc3C3C=CCC32)cc1 (stereo unspecified)	/	3	122	138
Cc1csc(=O)n1CCC(=O)OCC(=O)Nc1ccccc1	-2	-15	100	105
Cn1nnnc1SCC1=C(C(=O)O)N2C(=O)C(NC(=O)C(OC=O)c3ccccc3)C2SC1 (stereo unspecified)	-20	1	102	101
Cc1c(C(=O)O)cccc1C(=O)c1ccccc1	/	-6	112	103
CN(C)CCSc1nnc(-c2ccccc2)o1	-3	-15	101	104
CC(NC(=O)COc1ccc2ccccc2c1)C(=O)O (stereo unspecified)	1	-1	99	101
CC(C)(C)OC(=O)/C=C/c1c(Cl)nc2sccn12	0	/	100	100
O=c1[nH]c(=O)n(Cc2c(Cl)cccc2Cl)cc1F	-8	2	104	103
c1ccc(CSc2nnc3c4ccccc4n(Cc4ccccc4)c3n2)cc1	/	-16	103	98
CCOC(=O)c1[nH]c2ccc(C)cc2c1NC(=O)OC	i	-7	103	103
COC(=O)c1sc2nc(SCC(=O)N(C)c3ccccc3)n(N)c(=O)c2c1C	0	-36	101	97
NC(=O)c1cc[n+](CC(=O)N2CCOCC2)cc1	1	3	101	103
Nn1c(Nc2ccccc2)nc2sc3c(c2c1=O)CCC3	/	-11	108	99
CCc1ccc(-c2cc(C)no2)cc1S(=O)(=O)Nc1ccccc1	-14	-17	99	104
O=c1oc(-c2ccc(F)cc2)nc2sc3c(c12)CCCC3	-36	/	103	101
COc1ccc(Cn2c(SC)nc3ccccc32)cc1	-9	8	102	99
COc1cc(NC(=O)c2nc3ncccn3n2)cc(OC)c1OC	6	14	100	102
Nc1cccc(OCCOCCOc2cccc(N)c2)c1	-9	7	98	97
C/C(N)=C(/C#N)C(=O)CSc1nnc2c(Cl)cc(Cl)cn12	-4	5	102	110
C=CCn1nnnc1SCC(=O)Nc1cccc(C(F)(F)F)c1	-4	-15	101	101
O=C1CSc2ccc(C(=O)N3CCN(Cc4ccc5c(c4)OCO5)CC3)cc2N1	8	-20	94	95
Cc1cc(N2CCOCC2)ccc1/C=C1\NC(=O)N(Cc2ccccc2)C1=O	-48	-64	102	99
O=C(Cc1cccc(C(F)(F)F)c1)NC1=NCCS1	2	-18	97	96
Cc1noc(C)c1COC(=O)/C=C/c1cn(-c2ccccc2)nc1-c1cc2ccccc2oc1=O	13	-31	109	114
COC(=O)c1ccc(S(=O)(=O)N(C)C)o1	-16	11	100	103
CCOc1cccc2c1Oc1nc(-c3ccccc3)nc(SCC(=O)N(CC)CC)c1C2	55	-21	105	104
N#CC(C#N)=C(C#N)c1ccc(-c2ccccc2)[nH]1	39	-105	100	112
Cc1c(-c2cc(NC(=O)c3ccccc3)n[nH]2)sc2ccc(Cl)cc12	-7	-20	107	110
Cc1nn(CC(C)C)c(Cl)c1C(=O)NCc1cccnc1	-2	7	102	99
COC(=O)/C=C/c1cn(C2OCC(CO)C2O)c(=O)[nH]c1=O (stereo unspecified)	8	-15	108	96
O=C(CNC(=O)c1sc2ccccc2c1Cl)Nc1ccc(-n2cnnn2)cc1	9	-13	106	103
C=C(C)Cn1c(CCCNC(=O)c2ccc(F)cc2)nc2ccccc21	-2	-13	100	102
O=C(CSc1cccc[n+]1[O-])c1ccco1	0	-15	104	106
COc1cccc(N2C(=O)CC(SCC(=O)Nc3ccc4ccccc4c3)C2=O)c1 (stereo unspecified)	10	-28	103	107
CCN(c1cccc(C)c1)c1ncnc2c1cnn2-c1ccc(C)cc1C	90	4	102	105

Among those listed so far, these contain an NH in an aromatic ring:
compound	MbtI inh	Mtb MenB inh	Polio RdRp inh	Polio RdRp inh intensity
CCOc1ccc2[nH]c(=O)c(C(c3nnnn3CCOC)N3CCCCC3)cc2c1 (stereo unspecified)	/	-8	98	107
C=CCNCc1cc2cc(OCC)ccc2[nH]c1=O	88	-59	100	101
Nc1ccc(-c2nn[nH]n2)cc1F	/	-15	101	105
COCCCN1CCc2nc(SCC(=O)Nc3cccc(C(F)(F)F)c3)[nH]c(=O)c2C1	-25	-4	102	103
CN(C)C(CNC(=O)Cc1c[nH]c2ccccc12)c1ccco1 (stereo unspecified)	5	-22	110	121
CC(C)(C)c1nc(SCc2nc(-c3cccc(-n4cccc4)c3)no2)n[nH]1	-6	-17	102	104
Cc1ccc(-c2nnc(NC(=O)c3cc4c([nH]c5ccccc54)c(C)n3)s2)cc1	i	-13	104	102
CC1(C(=O)O)CCC(c2nc3ccccc3[nH]2)C1(C)C (stereo unspecified)	-7	/	106	101
COc1ccc(NC(=O)c2c[nH]c(=O)n(-c3ccccc3)c2=O)cc1	-3	-5	102	103
Cc1ccc(CNC(=O)c2c[nH]c3ccc(S(=O)(=O)Nc4ccc(C)cc4C)cc3c2=O)cc1	-98	0	103	105
O=c1[nH]c(=O)n(Cc2c(Cl)cccc2Cl)cc1F	-8	2	104	103
CCOC(=O)c1[nH]c2ccc(C)cc2c1NC(=O)OC	i	-7	103	103
N#CC(C#N)=C(C#N)c1ccc(-c2ccccc2)[nH]1	39	-105	100	112
Cc1c(-c2cc(NC(=O)c3ccccc3)n[nH]2)sc2ccc(Cl)cc12	-7	-20	107	110
COC(=O)/C=C/c1cn(C2OCC(CO)C2O)c(=O)[nH]c1=O (stereo unspecified)	8	-15	108	96
